# Cruzain Triton – inhibitors of Trypanosoma cruzi cruzain with detergent; purified cruzain, Z-FR-AMC fluorescence, 0.01% Triton; Potency, µM, without a hit: max response, negative = inhibition, hits mostly inhibitors; AID 1478; 200,000 tested, 0.43% active; active = well fitted curve in the direction sought with a large enough effect; inconclusive = small, poorly fitted or top-dose-only effect, or another doubt; inactive = no such curve, though single readings can be large; an effect the other way counts as inactive or inconclusive;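 also: plate controls were neutral wells for no effect and buffer without enzyme for full effect; nearly all actives have a fitted effect of over 40% in size; top concentration of the series not given in the record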
# Target sequence (P25779 123-467 limits assumed): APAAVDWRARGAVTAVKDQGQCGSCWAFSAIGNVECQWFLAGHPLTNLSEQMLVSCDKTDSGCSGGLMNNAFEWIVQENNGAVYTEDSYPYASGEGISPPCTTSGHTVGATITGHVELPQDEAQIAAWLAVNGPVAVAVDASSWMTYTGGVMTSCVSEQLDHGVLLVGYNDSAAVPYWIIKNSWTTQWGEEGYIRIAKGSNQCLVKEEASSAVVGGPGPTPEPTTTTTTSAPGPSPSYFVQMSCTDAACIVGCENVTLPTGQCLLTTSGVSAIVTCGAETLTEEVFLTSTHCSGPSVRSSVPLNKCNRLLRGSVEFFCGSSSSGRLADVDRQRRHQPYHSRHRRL
#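 15 min RT preincubation of 1.5 nM cruzain with compound, then 2 uM Z-FR-AMC added; kinetic AMC fluorescence, 60 s delta. Triton X-100 0.01%, pH 5.5.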
# Lassa entry inh – Lassa virus entry inhibition. Lassa virus pseudotype entry inhibition, cell reporter; control for the full effect not named in the record. Potency, µM (top dose mostly 37.9 µM), inactives show at the top dose activity change, negative = inhibition, usual class: inhibitors. 300,000 tested, 1.2% active; active means well fitted inhibition curve with a large enough effect; inconclusive means small, poorly fitted or top-dose-only effect, or effect the other way; inactive means flat fitted curve, though single readings scatter; tested in HEK293 cells; also: % is scaled to controls: 0 for no effect and ±100 for the full control effect; nearly all actives have a fitted effect of over 50% in size; luciferase read-out
# Cruzain inh noDet – blocks cruzain activity in detergent-free assay; AID 1476; 200,000 tested, 2.3% active; P25779; Potency, µM, without a hit: max response, negative = inhibition, hits mostly inhibitors; purified cruzain, Z-FR-AMC fluorescence, no detergent; active = well fitted curve in the direction sought with a large enough effect; inconclusive = small, poorly fitted or top-dose-only effect, or another doubt; inactive = no such curve, though single readings can be large; an effect the other way counts as inactive or inconclusive;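 also: plate controls were enzyme without inhibitor for no effect and buffer without enzyme for full effect; nearly all actives have a fitted effect of over 40% in size; top concentration of the series not given in the record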
#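 Purified cruzain at 1.5 nM, pre-incubated 15 min with compound at room temperature in 100 mM sodium acetate pH 5.5, 5 mM DTT, 0.00005% Triton X-100. Reaction started with 2 uM Z-FR-AMC; AMC fluorescence increase over 60 s gives rate.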
# MARV entry inh – blocks Marburg virus binding to or entry into cells | AID 540276 | Marburg virus pseudotyped entry inhibition, cell reporter; control for the full effect not named in the record; about a third of the inactives were read at about 46 µM | Potency, µM (doses to about 37.8 µM), inactives show at the highest dose activity change, negative = inhibition, actives largely listed as inhibitors | 300,000 tested, 1.8% active; active = well fitted inhibition curve with a large enough effect; inconclusive = small, poorly fitted or top-dose-only effect, or effect the other way; inactive = flat fitted curve, though single readings scatter; tested in HEK293 cells; about a fifth of its hits are not listed in these tables; also: % is scaled to controls: 0 for no effect and ±100 for the full control effect; luciferase read-out
# RE007 growth inh – less growth of the S. pombe RE007 Vpr strain | S. pombe RE007 Vpr strain, BacTiter-Glo ATP luminescence, 24 h; control for the full effect not named in the record | Potency, µM (series often up to 92.2 µM), for inactives: at the highest dose activity change, negative = less growth | 360,000 tested, 0.21% active | AID 651644; active = well fitted falling curve with a large enough effect; inconclusive = small, poorly fitted or top-dose-only effect; inactive = no such curve, though single readings can be large or run the other way;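 also: % is scaled to controls: 0 for no effect and ±100 for the full control effect; nearly all actives have a fitted effect of over 50% in size; the assay follows cell death caused by Vpr and the record does not say whether a fall means rescue or toxicity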
#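 Fission yeast RE007 carrying one integrated HIV-1 vpr copy, seeded at OD 0.01 in PMG+AL medium with 23 nL pinned compound. Grown 24 h at 30 degrees; viability read by BacTiter-Glo luminescence after 5 min.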
# StopGo reporter – FMDV 2A StopGo reporter, luciferase signal; human cells with a luciferase reporter of 2A StopGo recoding; control for the full effect not named in the record; Potency, µM (highest dose often 57.9 µM), without a hit: top-dose signal change, negative = less light; 410,000 tested, 1.2% active; active = well fitted falling curve with a large enough effect; inconclusive = small, poorly fitted or top-dose-only effect; inactive = no such curve, though single readings can be large or run the other way; tested in HEK293T cells; also: % is scaled to controls: 0 for no effect and ±100 for the full control effect; nearly all actives have a fitted effect of over 45% in size; luciferase light after 4 h
# NS1 function inh – blocks influenza NS1 protein function; S. cerevisiae slowed by influenza A NS1, growth recovery by OD600; Potency, µM (doses to about 46.1 µM), without a hit: top-dose activity, positive = more growth; 270,000 tested, 0.4% active; AID 2326; also: actives are rising curves; nearly all actives have a fitted effect of over 50% in size
#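 Recovery from NS1-induced slow growth read by OD600 in budding yeast switched to galactose assay medium (pH 6.0, -URA) at 1:100 dilution. Compound 23 nl per well; the matching strain lacking NS1 serves as control.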
# SARS PLP yeast – blocks SARS-CoV papain-like protease in a yeast assay; S. cerevisiae expressing SARS-CoV PLpro, growth rescue; control for the full effect not named in the record; Potency, µM (titrated, usually from 32.9 µM), without a hit: at the top dose activity, positive = growth rescue; 330,000 tested, 0.19% active; AID 485353; also: 0% is about no effect; nearly all actives have a fitted effect of over 55% in size; growth read by luminescence after 48 h
# * marks the source's active call; other numbers are inactive results; ? = inconclusive; nt = not tested or not shown; & = joins results of further samples; [ ] = remark or other dose. Unless noted, calls follow the shape of the dose curve; as a rule, active means well fitted rising curve with a large enough effect; inconclusive means small, poorly fitted or top-dose-only effect; inactive means no such curve, though single readings can be large or run the other way. Potency is read from the fitted curve at half-maximal effect.
SMILES,Cruzain Triton,Lassa entry inh,Cruzain inh noDet,MARV entry inh,RE007 growth inh,StopGo reporter,NS1 function inh,SARS PLP yeast
Cc1[nH]c2c(ccc3cccnc32)c1C,nt,4%,nt,0%[14.2 µM],-14%,15%,-5%,0%
COc1ccc2c(c1)C(=O)C1NC(=O)NC(=O)C1(Br)N2 (stereo not drawn),nt,-4%[46.1 µM],nt,24%[46.1 µM],4%,-8%,nt,nt
CCc1ccc(NC(=O)N(CCCOC(C)C)C2CCN(C(C)=O)CC2)cc1,0.3%,?,?,-11%,14%,nt,-34%,3%
CCN(CCCNC(=O)C1CCN(S(=O)(=O)CC)CC1)c1cccc(C)c1,6.4%,4%,-5%,16%,8%,-14%,-3%,2%
O=[N+]([O-])c1cccc(/C=N/N2CCN(Cc3ccccc3)CC2)c1,nt,?,nt,?,-15%,22%,nt,3%
Cc1oc(-c2ccccc2Cl)nc1CS(=O)CC(=O)NCCCN1CC(C)CC(C)C1 (stereo not drawn),nt,nt,nt,nt,-8%,-19%,3%,-4%
O=C(CSc1nccn1-c1ccccc1)c1ccc(Cl)cc1,-5.0%,9%,19%,?,-8%,32%[activator],-3%,-6%
N#CCCN/N=C(\Cc1nc2ccccc2[nH]1)c1ccccc1,-0.5%,36%,-5%,3%,-13%,47%[activator],-2%,-3%
CN(CC(=O)Nc1cccc(S(=O)(=O)N2CCCC2)c1)Cc1ccccc1,nt,?,nt,-28%,-11%,11%,nt,2%
Cc1cccc(NC(=O)C2C3C=CC(C4CC34)C2C(=O)O)c1 (stereo not drawn),-2.5%,1%,8%,11%,21%,-15%,?,9%
Cc1ccc(S(=O)(=O)N2CCCCC2)cc1NC(=O)c1cncc(Br)c1,nt,?,nt,?,-4%,-18%,nt,-4%
N#CC1=C(N)OC2=C(C(=O)CC(c3ccccc3)C2)C1c1cccnc1 (stereo not drawn),-12%,?,-6%,?,-10%,0%,23%,7%
Cn1c(=O)c([N+](=O)[O-])c(N2CCN(Cc3ccc4c(c3)OCO4)CC2)c2ccccc21,nt,?,nt,?,20%,?,-5%,0%
O=C1CC(c2nnc(Cc3ccc(F)cc3)o2)CN1c1ccccc1 (stereo not drawn),-2.5%,8%[46.1 µM],-1%,1%[46.1 µM],nt,-5%,nt,nt
CCn1ccc(C(=O)NC2=NCCS2)n1,-12%,?,-3%,?,-18%,24%,1%,-14%
CC(C)N(C)Cc1nnnn1CC(=O)NCCc1cccc(C(F)(F)F)c1,nt,-10%[46.1 µM],nt,?,-3%,-2%,-3%,3%
CCn1c(C)[n+](CC)c2ccc(S(=O)(=O)NC)cc21,nt,-11%,nt,21%&21%[46.1 µM],7%,-8%,0%,0%
CSCC[C@H](NC(=O)OC(C)(C)C)C(=O)N1CCC(C(=O)N[C@@H](Cc2c[nH]c3ccccc23)C(=O)O)CC1,nt,nt,nt,nt,-7%,-18%,10%,1%
CCC(Sc1ncccc1C(=O)O)C(=O)N1CCCC1 (stereo not drawn),-1.4%,-9%,-5%,0%,10%,10%,11%,11%
COc1ccc(N(C(=O)Cc2cccs2)C(C(=O)NC2CCCC2)c2ccncc2)cc1OC (stereo not drawn),nt,-1%,nt,10%[46.1 µM],5%,-7%,3%,2%

# Part of the list above, field by field.
CSCC[C@H](NC(=O)OC(C)(C)C)C(=O)N1CCC(C(=O)N[C@@H](Cc2c[nH]c3ccccc23)C(=O)O)CC1
  Cruzain Triton = nt; Lassa entry inh = nt; Cruzain inh noDet = nt; MARV entry inh = nt; RE007 growth inh = -7%; StopGo reporter = -18%; NS1 function inh = 10%; SARS PLP yeast = 1%
CCC(Sc1ncccc1C(=O)O)C(=O)N1CCCC1 (stereo not drawn)
  Cruzain Triton = -1.4%; Lassa entry inh = -9%; Cruzain inh noDet = -5%; MARV entry inh = 0%; RE007 growth inh = 10%; StopGo reporter = 10%; NS1 function inh = 11%; SARS PLP yeast = 11%

# (continued)
SMILES,Cruzain Triton,Lassa entry inh,Cruzain inh noDet,MARV entry inh,RE007 growth inh,StopGo reporter,NS1 function inh,SARS PLP yeast
Cc1ccc(NCC(=O)c2ccccc2)cc1Cl,6.2%,10%,?,4%,4%,42%[activator],-16%,-16%
Cc1ccc(Cn2cc(CCC(=O)NCc3ccc(OC(C)C)cc3)c3ccccc32)cc1,-5.6%,14%[46.1 µM],7%,nt,nt,-5%,nt,nt
Cc1nnc(N/N=C/c2ccc(-c3ccccc3F)o2)n1N,nt,?,nt,?,-18%,28%,nt,-5%
O=C(NN=C(Cc1ccccc1)Cc1ccccc1)C1CC1,nt,-18%[46.1 µM],nt,-10%[46.1 µM],8%,8%,nt,3%
Cc1c(C(=O)NCc2ccccc2)oc2ccc(S(=O)(=O)N3CCC(C)CC3)cc12,-6.3%,?,-6%,?,nt,?,nt,nt
CCOC(=O)c1ccc(NC(=O)CCC2COc3ccccc3O2)cc1 (stereo not drawn),-6.8%,4%,-6%,0%,-9%,0%,-46%,-13%
O=C(CN(C(=O)c1csnn1)c1cccc2ccccc12)NCc1ccc(F)cc1,nt,13%,nt,-18%[46.1 µM],-2%,-2%,-10%,0%
CCN(C(=O)COC(=O)/C=C/c1nc2ccccc2s1)C1CCS(=O)(=O)C1 (stereo not drawn),nt,-13%,nt,?,-23%,-24%,nt,0%
CC(C)C(=O)NN(C(=O)c1ccccc1)c1ccccc1,nt,-12%,nt,0%,4%,1%,nt,4%
OCC1CCCN(Cc2cn(Cc3ccccc3)nc2-c2cc3ccccc3o2)C1 (stereo not drawn),nt,-12%[46.1 µM],nt,?,4%,0%,-1%,-2%
COc1ccc2c(c1)[nH]c1c(=O)n(Cc3ccncc3)cnc12,nt,nt,nt,nt,-14%,5%,0%,0%
CC(=O)Nc1ccc(Cl)cc1-c1ccccc1,nt,?,nt,9%,3%,-1%,nt,nt
C=C(C)Cn1c(SCCCO)nc2c1c(=O)[nH]c(=O)n2C,0.7%,-9%,-10%,4%[46.1 µM],11%,4%,-1%,0%
CNP(=O)(Oc1ccccc1)OC12CC3CC(CC(C3)C1)C2 (stereo not drawn),nt,?,nt,4%[46.1 µM],-2%,-21%,4%,0%
O=C(CSc1nnc(CNC(=O)c2cccc(F)c2)n1-c1ccccc1)Nc1ccccc1F,2.7%,-28%[46.1 µM],5%,?,nt,-12%,nt,nt
O=C(C1COc2ccccc2O1)N1CCN(Cc2ccc(Br)cc2F)CC1 (stereo not drawn),nt,nt,nt,-17%[46.1 µM],-16%,?,-39%,-5%
Cc1ccc(C)c(SCC(=O)Nc2cc(C)nn2-c2ccc(F)cc2)c1,-0.5%,nt,4%,5%,nt,nt,4%,1%
COc1cc(/C=C2/SC(=S)N(c3ccccc3)C2=O)ccc1Oc1nc(N2CCOCC2)nc(N2CCOCC2)n1,-4.5%,-1%,-1%,13%,17%,-12%,-3%,-8%
CCCOc1cccc(C(=O)N/N=C/c2coc3ccccc3c2=O)c1,nt,nt,nt,nt,-1%,-5%,-6%,?
Fc1ccc(-n2nnc(-c3cnc4ccccc4c3)n2)cc1,nt,nt,nt,nt,-5%,?,-4%,-2%
CCCCOc1ccc(C(O)(CCC)CCN2CCOCC2)cc1 (stereo not drawn),-2.1%,?,-1%,?,-7%,?,0%&5%,0%
CCOc1ccc(-n2c(=O)c3c(C)c(C)sc3n(CC(=O)NCCc3ccccc3)c2=O)cc1,-1.5%,-2%[46.1 µM],5%,-11%[46.1 µM],nt,-11%,nt,nt
CCNc1nc(SCC(N)=O)nc2sc3c(c12)CCN(C)C3,nt,7%,nt,?,-16%,15%,5%,0%
CSc1ccc(S(=O)(=O)NC2CC2)cc1,nt,nt,nt,nt,0%,23%,2%,-11%
COc1cc2c(=O)n(CCC(=O)NCC3CCCO3)c(=O)n(CC(=O)Nc3ccc(C)cc3C)c2cc1OC (stereo not drawn),-0.3%,-19%&-16%[46.1 µM],0%,-5%&-1%[46.1 µM],2%,12%&-4%,-19%,0%
Cc1ccc2[nH]c3c(N4CCOCC4)ncnc3c2c1,-4.9%,7%,11%,-29%&-29%[46.1 µM],-2%,-29%,0%,12%
CC(=O)c1cc(F)c(N2CCOCC2)cc1C,0.1%,18%,-19%,13%,-4%,nt,0%,10%
Cc1ccc(NC(=O)N/C=C/c2ccco2)cc1,-2.8%,-3%,-10%,?,21%,52%[activator],?,5%
Cc1ccc(C2CC(c3ccccc3)=NN2C(=O)CSc2nnc(-c3ccc(Cl)cc3)o2)o1 (stereo not drawn),2.5%,-4%,?,17%,-13%,-28%,8%,nt
N#C/C(C(=S)Nc1ccccc1)=C1/NN=C(N2CCOCC2)N1c1ccccc1,nt,-6%[46.1 µM],nt,-10%[46.1 µM],10%,31%[activator],nt,2%
Cc1ccccc1C1N(c2nccs2)C(=O)C2CCCN21 (stereo not drawn),nt,3%[46.1 µM],nt,8%[46.1 µM],?,?,nt,-1%
CSc1nnc2c3cc(C)ccc3n(Cc3ccccc3)c2n1,?,-20%,25µM*,-26%,-1%,-12%,2%,3%
Cc1ccc(C(=O)NC(NCc2ccccc2)C(Cl)(Cl)Cl)cc1 (stereo not drawn),1.3%,3%,-5%,25%,-3%,-8%,-3%,11%
COc1ccc(C(=O)Nc2nnc(SCc3cc(=O)n4cccc(C)c4n3)s2)cc1,0.9%,1%[46.1 µM],0%,nt,nt,23%,nt,nt
CCC(=O)OC1(C)C(=O)C=C2C=C(C3CC3)OC=C2C1=O (stereo not drawn),1.8%,nt,7%,nt,6%,-14%,nt,nt
N#CC1=C(N)Oc2n[nH]c(-c3cccs3)c2C1c1cccs1 (stereo not drawn),-6.8%,0%,-10%,-1%,2%,?,2%,-5%
CN1/C(=C\C(=O)COC(=O)c2ccc([N+](=O)[O-])o2)C(C)(C)c2ccccc21,nt,9%,nt,4%,-6%,2%,nt,-24%

# Source: PubChem BioAssay (National Center for Advancing Translational Sciences (NCATS))
